Autofluor counter: flagged as autofluorescent in microsphere protease counterscreen. compound autofluorescence counterscreen, microsphere flow cytometry; hits give high values. fluorescence intensity (no concentration beside the values). 360,000 tested, 3.1% active. AID 624483;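 active = at least 3 SD above the mean of all compounds, about 16000 in these data; inconclusive = too few beads counted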;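 note: 100 nL of 1 mM stock went into each well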
Mtb hypoxia inh: Mtb hypoxia fluorescent reporter inhibition; AID 1159583; M. tuberculosis hypoxia-regulated fluorescent reporter, fluorescence; 300,000 tested, 0.1% active; fluorescence inhibition, % (concentration not given with the values);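 active = 35 to 45% if threefold the growth effect, above 45% if 1.5-fold the growth effect; inactive = the rest, general growth blockers included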;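 note: wells of about 50 µL received 100 nL stock; 0% = vehicle wells and 100% = reference inhibitor wells; whole bacteria with a GFP reporter of the hypoxia response; strong numbers were not always called active; many hits fall short of the cut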
Sa RN4220 lethal: S. aureus RN4220 growth inhibition; AID 1259311; inhibition, % (no concentration beside the values); OD600, 16 h; 330,000 tested, 0.33% active;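 active = z-score of -3 or lower and OD600 up to 0.18 on both plates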;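 note: plate controls were untreated cells for no effect and reference antibiotic for full effect; stock transfer was 100 nL into about 80 µL; one replicate is shown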
BJeLR viability: BJeLR cell viability loss; BJeLR (HRASV12) viability, CellTiter-Glo ATP luminescence, 48 h; reference of the scale not given here; inhibition, % (no concentration beside the values); 300,000 tested, 0.17% active; AID 1554;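 active = replicate mean above 50%; inconclusive = above 50% but judged a plate artefact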;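 note: 50 nL library stock added to about 25 µL; numbers are from one replicate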
Sa ugtP lethal: compounds lethal to S. aureus RN4220 ugtP deletion mutant; 330,000 tested, 0.54% active; growth inhibition, % (concentration not given with the values); OD600 growth, 16 h; some inactives read as strong as hits;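 active = z-score under -3 and OD600 up to 0.15 on both plates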;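 note: plate controls were untreated wells for no effect and antibiotic for full effect; wells of about 80 µL received 100 nL stock; the first replicate is given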
PrP 5UTR inh: suppresses PrP 5' UTR mRNA reporter expression. inhibition, % (concentration not given with the values). AID 488862. cell-based PrP 5' UTR mRNA reporter, plate reader. 340,000 tested, 0.35% active;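 active = every replicate at 50% or more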;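 note: 0 = median of the neutral control wells; tested in H4 reporter cells; numbers are from one replicate; inactives centre near -14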
Mtb hypoxia inh growth: also measured in Mtb hypoxia inh; calls as there; growth inhibition, %; measured here: M. tuberculosis growth (absorbance);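 0% = vehicle and 100% = reference antibiotic; read after six days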
* = called active by the depositor; ? = inconclusive; . = no result given; & = joins results of further samples.

canonical_smiles	Autofluor counter	Mtb hypoxia inh	Mtb hypoxia inh growth	Sa RN4220 lethal	BJeLR viability	Sa ugtP lethal	PrP 5UTR inh
Cc1cc(C)c(OCC(=O)OCC(=O)NCC2CCCCC2)c(C)c1	6135	6	4	2.4	8	1	-29
Cc1ccc(N(CC(=O)NC2CCCCC2)C(=O)c2ccc(C)s2)cc1	9592	14	2	0.5	-2	6	-17
Cc1cccc(OCc2nn[nH]n2)c1C	.	2	-6	3.3	-9	9	5
O=C(O)C1C(c2ccccc2)C(C(=O)Oc2ccc(O)cc2)C1c1ccccc1 (stereo unspecified)	15841	-8	1	5.9	-8	8	-13
COc1ccc(C(=O)Nc2sc(C)c(C)c2CN2CCOCC2)cc1	2057	2	4	4.5	-11	6	-50
CCOCCCNc1nc2nc3ccc(C)cn3c(=O)c2cc1C(=O)NCC1CCCO1 (stereo unspecified)	5209	-8	-5	5.2	0	-1	-13
COC(=O)Cn1c(Cc2ccccc2)nc2ccccc21	4231	.	.	.	1	.	-16
C=C1C[C@@]23CCC4[C@@](C)(CCC[C@@]4(C)C(=O)OC)C2CC[C@]1(OC(C)=O)C3 (stereo partly specified)	2924	24	10	3.2	.	23	-8
CCN=C(N/N=C/c1ccc([N+](=O)[O-])cc1)SC	3722	.	.	.	-12	.	-21
CC(C)NC(=O)N(C)CC1Oc2c(NC(=O)C3CC3)cccc2C(=O)N(C(C)CO)CC1C (stereo unspecified)	.	2	3	8.1	.	15	.
CCCCCC(O)(CCN1CCCCC1)c1ccccc1 (stereo unspecified)	3441	14	2	4.5	-3	9	-21
Cc1ncc(N=Nc2ccc(F)cc2)c(-c2ccc(Cl)cc2)n1	2563	.	.	2.5	-6	-12	-7
COCC(=O)Nc1cc(C(=O)Nc2ccccc2C)ccc1Cl	9139	9	-5	5.7	-12	12	-19
C=C1CCC2C(OC(=O)[C@]2(O)CO)C2C(=C)C(O)CC12 (stereo partly specified)	.	18	2	5.6	.	12	.
O=C(COc1ccc2ccccc2c1)NNC(=O)c1ccc([N+](=O)[O-])cc1	2169	10	-1	3.4	-2	-5	-25
CCOC(=O)C1CCN(C(=O)COC(=O)CN(C)S(=O)(=O)c2ccc(NC(C)=O)cc2)CC1	6219	12	1	0.6	4	2	-21
CCC1=C(OC(=O)N(CC)CC)N2C(=O)OC(=NCC3CC3)[C@]2(C)[C@H]2C1=CC[C@H]1C(=O)N(C)C(=O)[C@H]12	4249	.	.	.	11	.	-13
CSc1nc(N(C)NC(=O)c2cccc(C)c2)c2ccccc2n1	2890	5	11	-15	47	-9	31
COc1cccc(/C(O)=C/C(=O)C(=O)Nc2ccc(S(=O)(=O)NC(C)=O)cc2)c1	2043	12	8	6.4	0	-3	-11
CC1CCN(C(=O)c2cc3ccccc3c(=O)o2)CC1	8825	7	5	4.3	-7	12	-40

canonical_smiles	Autofluor counter	Mtb hypoxia inh	Mtb hypoxia inh growth	Sa RN4220 lethal	BJeLR viability	Sa ugtP lethal	PrP 5UTR inh
CCCC(=C1c2ccccc2C(=O)N1c1ccccc1)c1cnc(OC)nc1	.	-2	14	1.9	.	84	.
CCN(CC)C(=O)N1CCc2ccccc21	2497	12	12	7.2	-12	4	-9
Cc1ccc(NC(=O)CCN2C(=O)c3ccccc3C2=O)cc1C	3773	11	8	0.4	3	2	-17
COc1cccc(CN(C)Cc2nc(Cc3ccccc3Cl)no2)c1	4743	11	-3	4.3	-10	19	-3
CCOc1ccc(-c2cc3cc(OC)c(OC)cc3c(C)n2)cc1	3380	-7	7	9.1	6	-6	-9
OC(COCC(F)(F)C(F)(F)C(F)(F)C(F)F)Cn1c2ccccc2c2ccccc21 (stereo unspecified)	1917	11	0	-2.0	-3	-29	-16
COCCCNS(=O)(=O)c1cc2c3c(c1)C(C)C(=O)N3CCC2 (stereo unspecified)	5636	2	1	5.5	-1	1	-2
O=C(CSc1nnc(NCc2ccccc2)s1)NC1CCS(=O)(=O)C1 (stereo unspecified)	4915	-1	4	0.9	-11	-1	-20
O=c1cc(Nc2ccc3c(c2)OCCO3)[nH]c(=O)n1C1CCCCC1	5276	-5	3	7.5	-3	4	-41
Cc1ccc(C2(C)NC(=O)N(CC(=O)NCCC3=CCCCC3)C2=O)cc1 (stereo unspecified)	5071	.	.	0.8	-6	-3	-11
Cc1nc2ccc(NC(=O)c3cc([N+](=O)[O-])cc([N+](=O)[O-])c3Cl)cc2s1	2001	7	2	6.2	.	30	-29
CC(C)(C)c1ccc(C(=O)C2CCCN(C(=O)CN3CCCC3=O)C2)cc1 (stereo unspecified)	2539	16	5	6.1	2	3	-14
CC(=O)Nc1cccc(-c2nnc(SCc3ccccc3C#N)n2C)c1	4126	3	6	4.2	-9	-2	-11
CCC(Sc1ccccn1)C(=O)Nc1nnc(C)s1 (stereo unspecified)	3484	.	.	1.7	-2	9	-8
CC=C1COC(C(=O)NCc2cccc(OC)c2OC)(C(F)(F)F)C=C1C=C1CCCCC1 (stereo unspecified)	.	15	8	-8.8	.	25	.
O=C(COc1ccccc1C(=O)NCc1ccccc1)Nc1ccccc1	3988	16	9	11	.	6	5
COc1ccc(C(=O)N2CCN(c3cccc(C)c3C)CC2)cc1S(=O)(=O)NC1CC1	4931	-5	0	1.0	.	7	-25
CC(=O)NNc1ncnc2c1cnn2-c1ccccc1	4479	-13	9	-0.1	-3	-6	6
COC(=O)c1ccccc1NC(=O)CSc1nnc(CNS(=O)(=O)c2ccc(C)cc2)n1C	2698	.	.	-1.4	-2	1	-22
COc1ccc(Cc2nnc(NC(=O)Cc3cccs3)s2)cc1OC	3890	-92	-20	-1.7	-1	-4	-1

canonical_smiles	Autofluor counter	Mtb hypoxia inh	Mtb hypoxia inh growth	Sa RN4220 lethal	BJeLR viability	Sa ugtP lethal	PrP 5UTR inh
CCN(CC)c1ccc(C=Nc2cccnc2Cl)c(O)c1	4198	3	6	6.7	2	-1	-12
COc1cc2nc3c4ccccc4n(CC#N)c3nc2cc1OC	.	2	6	4.4	3	-4	.
CCN(C(=O)COC(=O)C(O)(c1ccccc1)c1ccccc1)c1c(N)n(Cc2ccccc2)c(=O)[nH]c1=O	?	-3	-5	2.9	.	8	-23
O=C(NC1CCCCC1)c1ccc(-c2cccc([N+](=O)[O-])c2)o1	6536	6	2	-3.4	11	-4	-91
CCSc1nnc(NC(=O)c2ccccc2C)s1	4759	-5	1	4.0	-6	3	-51
COc1ccc(S(=O)(=O)Cc2ccc(C(=O)N3CCc4ccccc4C3)o2)cc1	4306	.	.	4.5	1	2	-6
COc1cccc(CN(C)CC(=O)Nc2cccc(S(N)(=O)=O)c2)c1OC	2721	10	-5	1.9	-6	4	-10
Cc1[nH]c2ccccc2c1SCC(=O)NC1CCCCC1	4484	15	4	11	6	1	4
COc1ccc(S(=O)(=O)NCc2ccncc2)cc1NC(=O)c1ccccc1F	3409	11	12	-0.4	.	1	-3
CCOc1cc(/C=N/NC(=O)CSc2nnc(C)s2)ccc1OCc1ccccc1Cl	2452	.	.	.	15	.	-4
Cc1cccc(-n2ncc3c(N4CCCc5ccccc54)ncnc32)c1	20241*	12	14	0.3	-7	-8	-139
COC(=O)c1ccc(S(=O)(=O)NC(C)(C)C)n1C	4863	-8	-4	3.6	-1	8	-4
COc1ccc(NC(=O)c2sc3nc(C)cc(C)c3c2N)c(OC)c1	6255	-3	-4	5.5	0	0	.
CCCC(=O)Nc1ccc(NC(=O)c2cccc(OC)c2)cn1	.	-6	-5	-0.4	2	5	-11
c1ccc(C(c2ccccc2)N2CCN(c3ccc4ccccc4n3)CC2)cc1	2777	.	.	-7.0	-6	21	-25
COC(=O)C1=C(C)N(CC(C)C)C(=O)/C1=C\c1cccs1	3301	.	.	.	-4	.	-14
COc1cc(C(=O)OCC(=O)N2CCCCCC2)c([N+](=O)[O-])cc1OC	?	8	14	4.2	.	4	.
CC(=O)Nc1nc(C2COc3ccccc3O2)cs1 (stereo unspecified)	4173	5	2	3.8	-7	3	-33
CCC(C)(C)n1nnnc1C(c1ccc2ncccc2c1)N1CCN(c2ccc(O)cc2)CC1 (stereo unspecified)	5093	2	6	3.9	-4	5	-17
CCNC(=S)NNC(=O)CCc1nc2cc(Cl)ccc2n(Cc2ccccc2)c1=O	4755	-10	4	0.5	4	13	-25

canonical_smiles	Autofluor counter	Mtb hypoxia inh	Mtb hypoxia inh growth	Sa RN4220 lethal	BJeLR viability	Sa ugtP lethal	PrP 5UTR inh
Cc1ccc(Cn2c(NS(=O)(=O)c3ccccc3)nc3ccccc32)cc1	7475	9	4	3.5	5	-25	-18
Cc1nonc1C(=O)N/N=C/c1ccc(O)c(O)c1	8415	.	.	.	-6	.	-21
N#Cc1ncc(-c2ccc3c(c2)OCCOCCOCCOCCO3)nc1C#N	10576	16	-4	6.5	-1	7	-23
O=C(CSc1nnc(CNC(=O)c2ccccc2)o1)Nc1ccc2c(c1)OCCO2	6224	4	6	-2.8	-1	-4	-5
S=c1[nH]cc(-c2ccccc2)n1-c1ccccc1Cl	2147	3	8	1.9	0	0	-16
CCN(Cc1nc2ccccc2c(=O)[nH]1)C(=O)c1cccc(S(=O)(=O)N2CCc3ccccc32)c1	3049	7	-2	4.7	.	8	-6
CCCCOc1ccc(/C=C/C(=O)Nc2ccc(C(N)=O)cc2)cc1	1991	10	5	0.3	-1	-1	-1
Cc1nn(CC(=O)N2CCN(S(=O)(=O)c3ccccc3)CC2)c(C)c1[N+](=O)[O-]	2767	-12	-5	-0.8	.	0	-8
O=C(O)c1ccccc1C(=O)c1ccc(Oc2ccccc2)cc1	2021	.	.	.	-1	.	-25
Cc1csc2nc(CSc3nc4ccccc4o3)c(Br)n12	3016	6	8	16	9	15	-93
Cn1cncc1C#Cc1ccc2cc(C(C)(C)O)oc(=O)c2c1	4204	9	-15	15	.	7	2
Cc1c(NC(=O)c2cccs2)cccc1NC(=O)c1cccs1	4175	7	-4	1.1	0	1	-6
CCOC(=O)c1ccc(NC(=O)CN2C(=O)NC3(CCCCCCC3)C2=O)cc1	8814	2	0	1.7	.	-2	-22
N#Cc1nc(-c2ccccc2)oc1N1CCC(C(N)=O)CC1	3966	4	-9	4.5	0	2	-15
COc1cccc(N2CCN(c3nc(C)cc(=O)[nH]3)CC2)c1	?	7	2	0.5	-3	10	-7
CCCCC(=O)N1CCCC(C(=O)OCC)C1 (stereo unspecified)	22655*	3	9	2.0	-4	0	-8
COCCN(C(=O)COC(=O)CCc1c[nH]c2ccccc12)c1c(N)n(Cc2ccccc2)c(=O)[nH]c1=O	4548	-3	5	-1.8	-2	3	-25
COc1ccccc1CNC(=O)c1cnc2sccn2c1=O	5171	2	-2	5.7	5	2	-73
CN1CCN(CC(=O)Nc2nc3ccccc3s2)CC1	3099	-1	0	2.4	-10	11	-27
CCC1Nc2ncnc(N3CCOCC3)c2N(Cc2ccc(Br)cc2)C1=O (stereo unspecified)	3494&5411	-9	9	-2.9	.	-3	-13

As a short view, some entries already given.
canonical_smiles	Autofluor counter	Mtb hypoxia inh	Mtb hypoxia inh growth	Sa RN4220 lethal	BJeLR viability	Sa ugtP lethal	PrP 5UTR inh
Cc1ccc(Cn2c(NS(=O)(=O)c3ccccc3)nc3ccccc32)cc1	7475	9	4	3.5	5	-25	-18
Cc1nonc1C(=O)N/N=C/c1ccc(O)c(O)c1	8415	.	.	.	-6	.	-21

(continued)
canonical_smiles	Autofluor counter	Mtb hypoxia inh	Mtb hypoxia inh growth	Sa RN4220 lethal	BJeLR viability	Sa ugtP lethal	PrP 5UTR inh
O=C(O)c1cccc(NC(=O)c2cccc(S(=O)(=O)N3CCc4ccccc4C3)c2)c1	4358	6	21	5.1	-2	5	-19
Cc1ccc(-c2noc(-c3ccno3)n2)cc1	6185	3	15	-2.0	-21	0	-10
CN(C(=O)c1cccc(NC(=O)Cc2ccc(NC(=O)C3CCCN(C(=O)c4ccccc4)C3)cc2)c1)C1CCCC1 (stereo unspecified)	2914	-6	0	4.2	.	1	-24
NC(=O)c1ccccc1OCc1nnc(-c2ccccc2Br)o1	3934	0	-1	4.0	-7	10	-35
C/C(=N\OCC(=O)OC(C)C(=O)Nc1ccc(C(N)=O)cc1)c1ccc2c(c1)OCO2 (stereo unspecified)	4378	.	.	.	-13	.	-29
O=C1CC(c2ccc(F)cc2)CC(O)=C1C=NCCN1CCNCC1 (stereo unspecified)	5094	.	.	1.1	-6	13	-20
CCN(CC(=O)Nc1ccc(OC)cc1)C(=O)CCS(=O)(=O)c1ccc(C)cc1	5952	-9	2	-2.0	0	-4	-27
Nc1ncnc(Sc2ccccc2)c1[N+](=O)[O-]	2010	-10	-1	-1.3	-4	1	-21

Screening results from PubChem.
